# KCNQ2 pot: KCNQ2 (rat) channel potentiation. O88943. CHO-K1 KCNQ2, FluxOR thallium flux fluorescence; active compounds read high. B-score at 10 µM. 310,000 tested, 0.54% active. AID 2239;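 active means fluorescence ratio B-score at least 3 SD of library B-scores, with initial fluorescence B-score within 3 SD, cut at about 5.3 in these data; same plate scores as AID 2156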;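 further: B-score of peak minus minimum over baseline fluorescence ratio after K+ and Tl+ stimulus; positive B-score means potentiation of KCNQ2 with more thallium influx and brighter signal; only the inactives scoring about 0 or higher are listed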
# Target sequence (O88943 whole entry, looked up): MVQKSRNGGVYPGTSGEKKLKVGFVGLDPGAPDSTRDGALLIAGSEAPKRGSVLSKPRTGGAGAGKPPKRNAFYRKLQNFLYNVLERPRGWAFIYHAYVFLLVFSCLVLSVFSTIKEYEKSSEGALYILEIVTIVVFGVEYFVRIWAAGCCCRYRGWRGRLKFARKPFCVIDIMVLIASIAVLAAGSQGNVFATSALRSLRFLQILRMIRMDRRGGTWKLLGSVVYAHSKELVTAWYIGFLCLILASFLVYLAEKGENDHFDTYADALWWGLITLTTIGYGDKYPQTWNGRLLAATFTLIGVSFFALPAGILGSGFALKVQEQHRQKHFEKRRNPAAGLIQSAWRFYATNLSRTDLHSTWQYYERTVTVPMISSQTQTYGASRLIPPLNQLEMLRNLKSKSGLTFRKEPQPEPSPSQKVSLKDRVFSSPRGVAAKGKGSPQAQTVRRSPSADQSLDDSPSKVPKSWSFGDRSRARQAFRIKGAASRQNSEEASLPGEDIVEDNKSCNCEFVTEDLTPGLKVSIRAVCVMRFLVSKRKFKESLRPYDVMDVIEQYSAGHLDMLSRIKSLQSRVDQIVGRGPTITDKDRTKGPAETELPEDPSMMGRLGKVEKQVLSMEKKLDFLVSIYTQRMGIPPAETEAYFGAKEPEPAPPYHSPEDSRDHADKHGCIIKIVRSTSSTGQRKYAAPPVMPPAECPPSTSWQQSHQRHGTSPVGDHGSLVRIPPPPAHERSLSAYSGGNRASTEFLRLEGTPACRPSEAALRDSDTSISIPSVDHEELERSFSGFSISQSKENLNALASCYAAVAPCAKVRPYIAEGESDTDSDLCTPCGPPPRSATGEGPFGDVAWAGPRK
# KCNQ2 pot baseline: second read-out of KCNQ2 pot, no call of its own (marks repeat the call); B-score; compound at 10 µM; measured here: initial fluorescence intensity artifact check;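 brightness before thallium and not channel activity; 0 = typical well and far values either way flag optical interference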
# Starred values were filed as active, the others as inactive. Some of the compounds tested, so the mix of outcomes need not match the whole.
compound | KCNQ2 pot | KCNQ2 pot baseline
CCCCCOC(=O)C1=C(C)NC(=O)NC1c1ccccc1OCC (stereo unspecified) | 2.32 | 0.6
CC(C)n1cc(CN2CCC(n3nccc3NC(=O)CCCc3ccccc3)CC2)cn1 | 1.3 | -1.36
CC(C)NC(=O)NC(=O)COC(=O)Cc1ccsc1 | 0.3 | -0.67
CSc1ccc(C(=O)N2CCc3ccc(NC(=O)c4ccccn4)cc3C2)cc1 | 0.47 | -3.05
CCOC(=O)C1CCN(C(=O)CSc2ccccc2)CC1 | 1.49 | 0.13
CCc1cccc(C)c1NC(=O)COC(=O)CC1CCCC1 | 0.89 | -0.06
C=CCn1c(SCC(=O)Nc2ncc(Cc3cc(Cl)ccc3Cl)s2)nnc1-c1ccncc1 | 0.94 | -2.83
O=C(c1ccncc1)N1CCN(C(=O)c2cccc3ccccc23)CC1 | 0.16 | -0.37
Cc1cccc(C)c1NC(=O)COC(=O)c1ccccc1O | 0.03 | -1.25
CCC(=O)Nc1ccc(NC(=O)CN2CCCC(C)C2)c(Cl)c1 (stereo unspecified) | 0.69 | 1.32
Cc1cccc(OCc2occc2C(=O)Nc2cccc(-n3cnnn3)c2)c1 | 0.33 | 0.24
CC(C)(C)NC(=O)C(c1ccccc1)N(C(=O)CNC(=O)c1cccs1)c1cccnc1 (stereo unspecified) | 0.56 | 0.28
CC1=NN(C(=O)Cn2nc([N+](=O)[O-])c(Br)c2C)C(O)(C(F)(F)F)C1 (stereo unspecified) | 0.37 | -0.74
Nc1c(Cl)cc(C2=NCCn3c2c2ccc(C(F)(F)F)cc2[n+]3[O-])cc1Cl | 0.28 | 0.03
CC(=O)c1c(N2CCN(C)CC2)nc(=S)n(-c2cc(C)ccc2C)c1C | 1.16 | -0.63
CSc1ccccc1OCc1cc(C(=O)NCCC2CCCCO2)no1 (stereo unspecified) | 2.49 | 0.61
CCN(CC)C(=O)COc1ccc(/C(C)=N/Nc2ncc(Cl)cc2Cl)cc1 | 0.43 | 0
CC(C)(C)CN1C(=O)C(=O)NC[C@@H]1CCCCN | 1.15 | 1.34
COc1cccc2c(=O)c3ccccc3oc12 | 2.88 | 0.46
O=c1[nH]c(CN(CCO)CCO)nc2c1C1(CCCCC1)Cc1ccccc1-2 | 0.11 | -1.48
O=[N+]([O-])c1ccc(NC2CCCC2)cc1 | 0.02 | -0.58
CC12CCC(C(=O)Nc3ccccc3)(C/C1=N\O)C2(C)C (stereo unspecified) | 0.76 | -0.81
Cc1ccc(CN2CCN(Cc3nc(C(C)C)cs3)CC2CCO)cc1 (stereo unspecified) | 0.9 | 0.6
Cc1cccc(NC(=O)Nc2cccnc2)c1C | 1.32 | -0.07
Nn1c(SCC(=O)Nc2ccc(OC(F)F)cc2)nnc1-c1ccco1 | 0.04 | 0.95

# Single values from the results shown.
# `CC(C)(C)CN1C(=O)C(=O)NC[C@@H]1CCCCN` in KCNQ2 pot baseline shows 1.34
# `CSc1ccc(C(=O)N2CCc3ccc(NC(=O)c4ccccn4)cc3C2)cc1` in KCNQ2 pot shows 0.47

# (more compounds)
compound | KCNQ2 pot | KCNQ2 pot baseline
O=C(/C=C/c1ccco1)Nc1cccc(S(=O)(=O)N2CCOCC2)c1 | 0.38 | 0.6
NC(=O)CN1C(=O)NC2(CCCc3ccccc32)C1=O (stereo unspecified) | 1.62 | -0.94
Cc1cc(C)n2nc(SCC(=O)N(C)C3CCCCC3)nc2n1 | 0.1 | 0.01
COc1ccc(C2CC(c3ccccc3)=NN2C(=O)CN2N=NC3C(=O)N(c4cccc(F)c4)C(=O)C32)cc1 (stereo unspecified) | 0.77 | 2.44
COc1ccc(C(=O)N2CCN=C2SC)cc1OC | 1.07 | 0.24
O=C(N/N=C/c1ccoc1)c1cccc(OC(F)(F)C(F)F)c1 | 2.06 | 0.52
COCCCNC(=O)c1cccc(NC(=O)c2ccccc2)c1 | 0.89 | -0.89
COc1cccc(-c2nc3ccccc3c(=O)o2)c1 | 0.13 | -0.29
OCCC1CN(Cc2ccc3c(c2)CCO3)CCN1C1CCCC1 (stereo unspecified) | 1.13 | 2.19
O=C(c1ccco1)N1CCN(c2ccc([N+](=O)[O-])cc2Cl)CC1 | 0.05 | 0.67
Cc1cccc(-c2noc(-c3ccoc3C)n2)c1 | 0.66 | 0.06
COc1ccc(C2=NN(C(C)=O)CC2c2cccc([N+](=O)[O-])c2)cc1 (stereo unspecified) | 0.48 | -1.16
CCC(C)Nc1nc(N)c([N+](=O)[O-])c(NCCO)n1 (stereo unspecified) | 0.64 | -1.77
O=C(CCCNC(=O)c1ccc(Cl)cc1)Nc1ncccc1O | 0.35 | -0.24
O=C1CN(C(=O)COc2c(F)c(F)cc(F)c2F)c2ccccc2N1 | 0.88 | -0.01
CCN(CC)C(=O)C1CCN(Cc2ccc(OCc3ccccc3)c(OC)c2)CC1 | 0.11 | -0.63
CCC(=O)Nc1c2c(nc3c1CCC3)CCCC2 | 0.7 | -0.02
Cn1c(SCc2ccccc2Br)nc2ccccc2c1=O | 1.87 | 0.21
COc1ccc(NC(=O)Nc2ccc3c(c2)CCC3)cc1OC | 1.2 | 0.37
Cn1c(SCC(O)c2ccccc2)nnc1-c1ccc2ccccc2c1 (stereo unspecified) | 0.01 | -1.27
O=c1[nH]c2cc3c(cc2cc1C(c1nnnn1C1CCCC1)N1CCSCC1)OCCO3 (stereo unspecified) | 0.87 | -0.47
CC(C)Oc1ccc(CNC(=O)CCCN2C(=O)C(c3ccccc3)Oc3cccnc32)cc1 (stereo unspecified) | 1.51 | -0.39
Cc1nn(-c2ccccc2)c(Cl)c1/C=N/O | 0.02 | -0.61
CN(CCc1ccccn1)C(=O)CCNC(=O)Cn1cnc2ccccc2c1=O | 0.26 | -1.25
O=C(CCNS(=O)(=O)c1ccc(Cl)cc1)N1CCN(Cc2ccccc2)CC1 | 0.67 | -0.21
Cc1csc(SCC(=O)Nc2oc(C)c3c(C)n[nH]c(=O)c23)n1 | 0.16 | 0.15
CCN(Cc1ccccc1)S(=O)(=O)c1ccc(C(=O)N(CCCN(C)C)c2nc3cc4c(cc3s2)OCCO4)cc1 | 1 | 1.96
CN(C)S(=O)(=O)c1cccc(C(=O)OCC(=O)NCc2ccc3c(c2)OCO3)c1 | 0.06 | -0.57
COC(=O)C1=C(C)NC(C)=C([N+](=O)[O-])C1c1ccccc1C(F)(F)F (stereo unspecified) | 0.33 | -1.16
COc1ccc(S(=O)(=O)N2CCOCC2)cc1C(=O)NC1CCCCC1 | 0.74 | 0.11
CN(C)NC(=O)C(NC(=O)c1ccccc1)C12CC3CC(CC(C3)C1)C2 (stereo unspecified) | 0.39 | -0.29
CN(C)C=NC(=O)c1cn(-c2ccc(F)cc2)c(=O)c2ccccc12 | 0.82 | -0.01
Cc1nc2c3cc(Cl)ccc3n(CCN3CCOCC3)c2s1 | 0.47 | -1.64
Cc1ccc(S(=O)(=O)/C(C#N)=C/c2c(N3CCC(C(N)=O)CC3)nc3ccccn3c2=O)cc1 | 0.09 | 0.2
CN(C)C(=O)c1ccc(NC(=O)c2cccc(S(=O)(=O)N3CCCc4ccccc43)c2)cc1 | 1.38 | -0.11
COc1ccc(CC(=O)NC2CCN(Cc3nnnn3C(C)(C)C)CC2)cc1OC | 0.85 | -0.08
O=C(N/N=C/c1ccccn1)c1ccccc1 | 0.44 | -1.73
Cc1cc2nccc(-c3ccc(Cl)cc3Cl)n2n1 | 1.93 | 2.52
CCOC(=O)c1ccc(N2C(=O)c3n[nH]c(-c4ccco4)c3C2c2cccc([N+](=O)[O-])c2)cc1 (stereo unspecified) | 2.69 | -0.92
COc1ccc(N(CC(=O)NCCC(C)C)C(=O)c2snc(C(=O)NC3CCCCC3)c2N)c(OC)c1 | 0.44 | 1.14
CC(O)C(=O)N/N=C/c1cccc(Cl)c1Cl (stereo unspecified) | 0.01 | 1.55
CCCCCC(=O)Nc1c(-c2cccs2)c(=O)c2ccccc2n1C | 0.97 | 0.17
COc1ccc(C(=O)Oc2cccnc2)cc1OC | 0.13 | -0.92
S=C(Nc1cc(Cl)ccc1Cl)Nn1cnnc1 | 0.71 | -0.71
O=C(Nc1ccccc1-c1nc2ccccc2[nH]1)c1sc2ccccc2c1Cl | 0.04 | 1.27
CCOc1ccc(N2C(=O)CC(SC(=NC)Nc3cccc(OC)c3)C2=O)cc1 (stereo unspecified) | 0.67 | 0.21
COc1ccc(-c2cc(NC(=O)c3cncn3-c3ccccc3)ccc2OC)cc1 | 0.19 | -1.29
CC1CC(=O)N(Cc2ccccc2)c2ccccc2N1C=O (stereo unspecified) | 0.13 | 0.08
CCc1ccc(-c2cn3nc(-c4ccccc4)cnc3n2)cc1 | 0.56 | 0.18
CCOC(=O)N1CCN(Cc2nc3c(c(=O)n(C)c(=O)n3C)n2Cc2cccc3ccccc23)CC1 | 1.33 | -0.61

# Brought forward from above: 4 entries, then new ones.
compound | KCNQ2 pot | KCNQ2 pot baseline
COc1ccc(-c2cc(NC(=O)c3cncn3-c3ccccc3)ccc2OC)cc1 | 0.19 | -1.29
CC1CC(=O)N(Cc2ccccc2)c2ccccc2N1C=O (stereo unspecified) | 0.13 | 0.08
CCc1ccc(-c2cn3nc(-c4ccccc4)cnc3n2)cc1 | 0.56 | 0.18
CCOC(=O)N1CCN(Cc2nc3c(c(=O)n(C)c(=O)n3C)n2Cc2cccc3ccccc23)CC1 | 1.33 | -0.61
Cc1cc(C)c(OCC(=O)OCC(=O)N2CCN(C(=O)c3ccco3)CC2)c(C)c1 | 1.71 | -0.51
COc1ccc(S(=O)(=O)N2CCOCC2)cc1NC(=O)COc1cccnc1[N+](=O)[O-] | 1.11 | 0.02
Nc1nnc(SCC(=O)Nc2ccccc2)s1 | 1.71 | -0.46
O=C(Cn1cc([N+](=O)[O-])cn1)Nc1ccn(Cc2c(F)c(F)cc(F)c2F)n1 | 0.58 | 4.99
CCN1CCN(c2c(C=O)c(Cl)nc3ccc(OC)cc23)CC1 | 1.94 | 0.69
Cc1[nH]oc(=O)c1N=Nc1ccccc1 | 0.8 | -0.51
O=C(COC(=O)Cc1cccc(C(F)(F)F)c1)Nc1ccccc1 | 1.43 | -0.21
CCOc1ccc(/C=C2\SC(=O)N(CCNC(=O)C3COc4ccccc4O3)C2=O)cc1OC (stereo unspecified) | 0.4 | -2.01
O=C(Nc1cccc(NC(=O)c2ccc(Cl)cc2Cl)c1)c1cccnc1 | 2.66 | 3.07
COc1cccc(NC(=O)CSc2nnc(CNC(=O)c3ccco3)n2C)c1 | 0.01 | 0.87
FC(F)(F)c1cccc(NC(=S)NCc2ccccc2)c1 | 1.65 | 1.18
CC1CCCN(C(=O)CSc2nnc(-c3c[nH]c4ccccc34)o2)C1 (stereo unspecified) | 2.84 | -2.78
COc1ccc(/C=C2/N=C(SC)NC2=O)cc1OC | 1.16 | -0.87
Cc1ccc(NC(=O)COc2cccnc2[N+](=O)[O-])cc1S(=O)(=O)N1CCOCC1 | 0.4 | -0.02
Cc1ccc(NC(=O)C(SCC(=O)O)c2ccccc2)cc1C (stereo unspecified) | 0.25 | 0.05
Cc1nn(-c2ccccc2)c(C)c1NC(=O)COC(=O)c1ccc(Cl)c(N)c1 | 1.18 | 0.77
CSc1ccccc1-c1nnc(-c2ccc(Cl)cc2Cl)o1 | 0.04 | -0.72
CSc1nsc(SC)c1NC(=O)OCC1CCCO1 (stereo unspecified) | 0.76 | -0.49
CCCNC(=O)OCc1cccnc1Sc1ccc(C)cc1 | 0.29 | -1.18
Cc1ccc(C(=O)O)cc1-c1ccc(/C=C2\SC(=O)N(CC(=O)Nc3ccccc3)C2=O)o1 | 0.45 | -0.56
CCC(Sc1nc(-c2ccccc2)c(C#N)c(=O)[nH]1)C(=O)Nc1cc(C)on1 (stereo unspecified) | 2.05 | -0.78
CC(C)c1nc2oc3ccccc3c(=O)c2c(=O)n1-c1ccccc1 | 0.75 | 1.28
CSCCC(NC(N)=O)C(=O)N(C)CC(=O)Nc1cc(C)ccc1C (stereo unspecified) | 0.81 | -0.23
COC(=O)CCCC1=CC2=CC(=O)C(C)(OC(=O)c3cccs3)C(=O)C2=CN1CCCCO (stereo unspecified) | 0.32 | 1.63
CC(C)(C)C(=O)NC1CC2CCCC(C1)N2C(=O)Nc1cccc(Cl)c1 (stereo unspecified) | 1.32 | -0.12

# Molecules shown so far with a cyano group:
compound | KCNQ2 pot | KCNQ2 pot baseline
Cc1ccc(S(=O)(=O)/C(C#N)=C/c2c(N3CCC(C(N)=O)CC3)nc3ccccn3c2=O)cc1 | 0.09 | 0.2
CCC(Sc1nc(-c2ccccc2)c(C#N)c(=O)[nH]1)C(=O)Nc1cc(C)on1 (stereo unspecified) | 2.05 | -0.78

# (next part)
compound | KCNQ2 pot | KCNQ2 pot baseline
Cc1ccc(NS(=O)(=O)N2CCOCC2)cc1Cl | 0.27 | 0.44
O=C(Nc1ccc(Cl)cc1)N1CCN(c2ncccn2)CC1 | 0.32 | -0.51
NC(=O)c1nn(-c2cccc(Cl)c2)c(=O)cc1O | 0.04 | -0.95
CCOc1ccccc1/C=N/n1c(C)nc2ccccc2c1=O | 0.69 | 1.27
CCCCOc1cccc(NC(=O)CSc2nccn2C)c1 | 0.98 | -1.07
CC1(C)C(c2ccccc2)=NC(c2ccccc2)N1O (stereo unspecified) | 0.05 | -1.41
CCc1cccc(CC)c1NC(=O)COC(=O)C1(C)CC1(Cl)Cl (stereo unspecified) | 4.02 | 0.47
Cc1[nH]c2ccc(C(=O)NCc3ccccn3)cc2c1C | 0.47 | 1.68
CNc1oc(C)nc1S(=O)(=O)c1ccccc1 | 0.79 | -0.59
O=C(O)CC/C(=N/NC(=O)CNC(=O)c1ccc2c(c1)OCCO2)c1ccccc1 | 0.39 | -0.85
OC1CCC(Nc2ncnc3sccc23)CC1 (stereo unspecified) | 0.88 | 0.02
O=C(COc1coc(CN2CCN(Cc3ccccc3)CC2)cc1=O)Nc1ccccc1 | 0.19 | 0.47
O=C(NNC1=NS(=O)(=O)c2ccccc21)c1ccccc1 | 0.46 | -0.87
COc1ccc(NC(=O)C(NC(C)=O)C(=O)NCc2ccc(F)cc2)cc1 (stereo unspecified) | 1.46 | -0.27
N#C/C(=C\c1ccc(-c2ccccc2)o1)C(=O)Nn1cnnc1 | 0.49 | 0.87

# Assay outcomes deposited in PubChem by Johns Hopkins Ion Channel Center.
